From PubChem BioAssay
H5N1 CPE: antiviral screen in MDCK cells, H5N1 avian flu. cytopathic effect, luminescence, 72 h; stronger effect = higher value; no value below 0 was filed and about half of the inactive calls have no number; reference of the scale not given here. inhibition, % at 50 µM. 96,000 compounds, 0.07% hits. AID 740; in the data active = inhibition above about 25%
* hit, by the source's call; i = inactive.

SMILES	H5N1 CPE
CC1(C)CC(=O)C=C(Nc2ccc3c(c2)OCCO3)C1	0.6
Cc1cccc(N=C2NN=C(c3ccc4c(c3)OCCO4)CS2)c1	3.0
CC(=NCc1ccco1)c1c(O)n(Cc2ccccc2)c(=O)[nH]c1=O	2.9
COc1cc(NC(=O)CN2C(=O)NC(C)(CCC(C)C)C2=O)cc(OC)c1 (stereo unspecified)	i
COc1cccc(-c2cc(C(=O)Nc3cc(C)n(Cc4ccc(Cl)cc4)n3)no2)c1	i
COc1ccc(Cl)cc1N1Cc2ccccc2C1	i
Cc1ccc(-c2csc3ncn(-n4c(C)ccc4C)c(=O)c23)o1	0.3
O=C1CC(N2CCN(Cc3ccccc3)CC2)C(=O)N1c1ccccc1 (stereo unspecified)	i
CSc1nnc(-c2ccccc2)n1N	i
Cc1cccc2cc(C#N)c(N3CCCC3)nc12	1.3
CCn1c(SC)nnc1-c1nnc(SC)n1CC	3.6
Cc1sc2c(=O)n3c(nc2c1C(=O)NCCCN1CCOCC1)CCCCC3	0.5
CCCCn1c(SCC(=O)Nc2cccc(C)n2)nnc1-c1ccco1	i
Cc1nc2ncnn2c(C)c1CCC(=O)N1CCN(C(=O)c2ccco2)CC1	1.9
O=C(CCCOc1ccccc1)Nc1ccc(S(=O)(=O)N2CCOCC2)cc1	i
CCOc1ccc(CCNC(=O)COC(=O)c2cccnc2OCC)cc1OCC	0.1
CCN(CC)c1ccc2cc(-c3nc4ccccc4[nH]3)c(=O)oc2c1	i
COC(=O)Nc1ccc(S(=O)(=O)N(C)C)cc1	i
CCCOc1ccc(C2C(C(=O)c3ccco3)=C(O)C(=O)N2CCCn2ccnc2)cc1 (stereo unspecified)	1.6
Cc1ccc(Oc2ccc(S(=O)(=O)N3CCOCC3)cc2C(N)=O)c(-n2nc3ccccc3n2)c1	i

Some of the entries so far, with bars between the fields:
structure | H5N1 CPE
Cc1sc2c(=O)n3c(nc2c1C(=O)NCCCN1CCOCC1)CCCCC3 | 0.5
CCCCn1c(SCC(=O)Nc2cccc(C)n2)nnc1-c1ccco1 | i
Cc1nc2ncnn2c(C)c1CCC(=O)N1CCN(C(=O)c2ccco2)CC1 | 1.9
O=C(CCCOc1ccccc1)Nc1ccc(S(=O)(=O)N2CCOCC2)cc1 | i
CCOc1ccc(CCNC(=O)COC(=O)c2cccnc2OCC)cc1OCC | 0.1

Remaining list, next part
SMILES	H5N1 CPE
COc1ccc(Cl)cc1NC(=O)CC(C)=O	i
O=C(Nc1ccc(-c2nc3ccccc3o2)cc1)c1cccnc1	0.6
Nc1nc(-n2cnnc2)nn1-c1ccccc1	0.4
CCOC(=O)C1=C(C)N=C2SC(C)C(=O)N2C1c1cccc(F)c1 (stereo unspecified)	i
O=C(c1nn(Cc2ccccc2)c(=O)c2ccccc12)N1CCN(C/C=C/c2ccccc2)CC1	i
COc1ccc(-c2nn(-c3ccccc3)cc2C(=O)O)cc1OC	0.6
CCCN(CCC)C(=O)CSc1nc2ccsc2c(=O)n1NC(=O)c1ccccc1	4.1
CCCCOc1ccc(C(=O)NCC2(c3ccccc3)CCOCC2)cc1	0.8
O=S(=O)(c1ccccc1)N1N=C(c2cccs2)CC1c1ccc(F)cc1 (stereo unspecified)	i
COC(=O)C(CCSC)NC(=O)Cn1ncc2c(=O)oc3ccc(C)cc3c21 (stereo unspecified)	1.2
CC(C)(C)Cc1nc(-c2ccc(Cl)cc2)no1	i
Cc1ccccc1NS(=O)(=O)c1ccc(NC(=O)c2ccco2)cc1	i
CN1CCN(CCCNC(=O)c2cn(C)c3ccc(S(=O)(=O)N(C)C)cc3c2=O)CC1	i
Cc1cc(C(=O)NCc2ccco2)on1	2.6
COc1ccc(NC2(c3ccc(Cl)cc3)C(=O)c3ccccc3C2=O)cc1	i
CCOc1ccccc1CNCCN1CCOCC1	0.9
CCOC(=O)c1cc(C#N)c(Oc2cccc(C(F)(F)F)c2)nc1-c1ccccc1	i
O=C(CCn1cccc1)NCc1ccccc1	i
CCCN(CCC)CCCNC(=O)c1cn(CCOC)c(=O)c2c1c1ccccc1n2C	1.4
O=C1c2cc(S(=O)(=O)NCCCO)ccc2-c2ccc(S(=O)(=O)NCCCO)cc21	i
COCCN(C(C)=O)c1nnc(-c2cnccn2)s1	i
Cc1cc(C)cc(N(CC(=O)Nc2cccc(C)n2)S(=O)(=O)c2c(C)noc2C)c1	i
CCS(=O)(=O)N1CCCC(C(=O)NCc2ccc(C)cc2)C1 (stereo unspecified)	i
Cc1nnc(NC(=O)C2COc3ccccc3O2)s1 (stereo unspecified)	0.2
CCOc1cc(/C=C2/NC(=S)NC2=O)ccc1OCc1ccc([N+](=O)[O-])cc1	0.4
O=C1CC(N2CCSCC2)C(=O)N1CCc1ccccc1 (stereo unspecified)	0.8
CCCCCNC(=O)CCCCn1c(=O)[nH]c2cc(OCC)c(OCC)cc2c1=O	0.6
C=C(C)CSc1nc(N)c2c(C)c(C)sc2n1	i
O=C(CCC1COc2ccccc2O1)Nc1cccnc1 (stereo unspecified)	0.7
Cc1nn(-c2ccc(Cl)c(Cl)c2Cl)c(=O)c2ccccc12	i
COc1ccc(CC(=O)Nc2cc(C)ccn2)cc1	1.8
CCC(=O)N1N=C(c2ccc(NS(C)(=O)=O)cc2)CC1c1ccc(C)cc1 (stereo unspecified)	2.1
CCOc1cc(S(=O)(=O)N2CCC(c3nc4ccccc4s3)CC2)c(OCC)cc1S(=O)(=O)N1CCCCC1	i
CCS(=O)(=O)N1CCC(C(=O)NCCc2ccccc2)CC1	i
CCOC(=O)Cn1c(=O)oc2cc(S(=O)(=O)NCCC(C)C)ccc21	i
CCOC(=O)C1CCN(C(=O)c2cc3cc4cc(OC)ccc4nc3o2)CC1	2.6
O=C(NCCN1CCCC1)C1CC(=O)N(C2CCCCC2)C1 (stereo unspecified)	1.2
CCCc1nnc(SCC(=O)N2CCCC(C)C2)n1CCCOC (stereo unspecified)	i
CCOC(=O)N1CCN(C(=O)c2ccc(Cl)c(S(=O)(=O)Nc3ccccc3)c2)CC1	1.5
C/C(=C\c1ccccc1)C(=O)NC1CCSC1=O (stereo unspecified)	i

An excerpt of these results, with each value named.
CCOC(=O)C1CCN(C(=O)c2cc3cc4cc(OC)ccc4nc3o2)CC1
  H5N1 CPE: 2.6
O=C(NCCN1CCCC1)C1CC(=O)N(C2CCCCC2)C1 (stereo unspecified)
  H5N1 CPE: 1.2
CCCc1nnc(SCC(=O)N2CCCC(C)C2)n1CCCOC (stereo unspecified)
  H5N1 CPE: i
CCOC(=O)N1CCN(C(=O)c2ccc(Cl)c(S(=O)(=O)Nc3ccccc3)c2)CC1
  H5N1 CPE: 1.5

Laid out differently: entries from further up
mol,H5N1 CPE
CCCCn1c(SCC(=O)Nc2cccc(C)n2)nnc1-c1ccco1,i
Cc1nc2ncnn2c(C)c1CCC(=O)N1CCN(C(=O)c2ccco2)CC1,1.9

Later entries
SMILES	H5N1 CPE
Cn1nc(C(F)(F)F)c(/C=N/OC(=O)c2ccccc2Cl)c1SCc1ccccc1Cl	5.1
O=[N+]([O-])c1ccc(Sc2n[nH]c(-c3ccccc3)n2)nc1	1.1
COc1cccc(CNC(=O)CCS(=O)(=O)c2cccc3nsnc23)c1	0.1
CCOC(=O)C(=Cc1ccc(OCc2ccc([N+](=O)[O-])cc2)c(OC)c1)C(=O)OCC	i
Cc1nc(-c2ccccc2)nc2[nH]c(-c3ccccc3)cc(=O)c12	4.0
O=C(COn1nnc2ccccc21)NCC1CCCCC1	i
O=C(CN1C(=O)C2C3C=CC(C3)C2C1=O)Nc1ccc2nccnc2c1 (stereo unspecified)	1.3
Cc1cc(N2C(=O)CCC2=O)n(-c2ccccc2)n1	i
COC(=O)c1ccc(NC(=O)C2C3C=CC(O3)C2C(=O)O)cc1 (stereo unspecified)	0.2
Nc1nc(NC(=O)c2cccs2)nn1-c1ccccc1	3.3
CN(C)S(=O)(=O)N1CCN(S(=O)(=O)c2ccccc2)CC1	0.4
COc1cccc(-c2nnn(CC(=O)Nc3cc(OC)c(NC(=O)c4ccco4)cc3OC)n2)c1	i
Cc1cccc(NC(=O)CCCCCN2C(=O)c3ccccc3C2=O)n1	i
O=P(C(c1c[nH]c2ccccc12)N1CCOCC1)(N1CCOCC1)N1CCOCC1 (stereo unspecified)	i
O=C(NCc1ccco1)c1ccc2c(=O)n(-c3ccccc3)c(=S)[nH]c2c1	i
CC(C)c1ccccc1OCCCCCNCCO	0.1
CCc1ccccc1OCc1nnc(N)s1	i
COc1ccccc1-n1c(SCC(=O)N(C)C2CCS(=O)(=O)C2)nc2ccccc2c1=O (stereo unspecified)	0.4
CCCn1nnc(NC(=O)c2sc3ccccc3c2Cl)n1	i
CCOC(=O)c1c(C)oc2c1c(C=NC1CCS(=O)(=O)C1)c(O)c1ccccc12 (stereo unspecified)	i

An excerpt from above in order of SMILES length, low to high.
SMILES	H5N1 CPE
CCCn1nnc(NC(=O)c2sc3ccccc3c2Cl)n1	i
O=C(NCc1ccco1)c1ccc2c(=O)n(-c3ccccc3)c(=S)[nH]c2c1	i
CCOC(=O)c1c(C)oc2c1c(C=NC1CCS(=O)(=O)C1)c(O)c1ccccc12 (stereo unspecified)	i

Other results follow:
SMILES	H5N1 CPE
O=C(C1CCN(c2ccc(N3CCOCC3)nn2)CC1)N1CCN(c2ccc(F)cc2)CC1	0.1
CCCC(=O)Nc1ccc(C#Cc2ccccc2)cc1	i
CN1/C(=C\C=Nc2ccc3ccccc3c2)C(C)(C)c2ccccc21	i
O=C(COc1cccc2ccccc12)N/N=C/c1ccc(Sc2nc3ccccc3s2)o1	0.1
C=Cn1ccnc1P(=S)(c1nccn1C=C)c1nccn1C=C	0.6
CC(C)C(=O)N1CCN(c2nc(-c3ccccc3)c3c(c2C#N)CCCC3)CC1	3.7
COc1ccc(S(=O)(=O)NCc2ccccc2Cl)cc1OC	0.2
CCOC(=O)COc1c(C=O)cc(Br)cc1OC	0.1
CSc1ccc(C(=S)N2CCN(C)CC2)cc1	i
O=C(Cc1cccs1)Nc1ccc(-c2nnn(CC(=O)N3CCOCC3)n2)cc1	0.6
CCOC(=O)C1CCN(C(=O)Cc2ccc(OC)c(OC)c2)CC1	1.2
Cc1nn(-c2ccccc2)c(C)c1P(=O)(c1ccccc1)N(C)C (stereo unspecified)	0.7
Cc1c(C(=O)Nc2nccs2)sc2nc(-c3cccs3)cc(C(F)(F)F)c12	4.2
COc1cccc(-n2c(Cc3cc(=O)[nH]c(=O)[nH]3)nnc2SCC(=O)N2CCC(C)CC2)c1	0.7
Cc1ncc(CC(=O)n2cc(C(=O)c3cc(Cl)ccc3O)cn2)s1	i
Cc1ccc(CN(C(=O)c2c(F)cccc2F)C2CC(C)(C)NC(C)(C)C2)o1	0.2
Cc1cc(Cl)c(S(=O)(=O)NCc2cccnc2)cc1OCC(=O)NC1CCCCC1	i
COC(=O)c1sccc1NC(=S)N1CCCCC1C (stereo unspecified)	5.8
CC(C)c1nc2ccccc2c2nnc(SCC(=O)NCc3ccco3)n12	0.6
O=C(Cn1nnc(-c2ccccc2)n1)Nc1ccccc1N1CCOCC1	0.0
COC(=O)C1=C(C(=O)OC)SC(=C2C(=S)C(C)(C)N(C(=O)C3CC3)c3ccccc32)S1	3.7
O=C(Nc1cccc(C(=O)N2CCOCC2)c1)c1ccccc1	i
ONC(=Nc1ccc(Cl)cc1)c1ccc(Cl)cc1	0.2
CCOc1ccc(-c2nnc3sc(COc4ccc(C)cc4)nn23)cc1	0.1
Clc1ccc(Cn2ncc3c(N4CCCCC4)ncnc32)c(Cl)c1	0.2
CCCCn1nnnc1SCC(=O)Nc1ccc2c(c1)OCO2	0.8
CCC(=O)c1ccc(OCc2ccc(C(=O)OC)cc2)c(OC)c1	1.3
COc1cccc(OC)c1C(=O)Nc1ccccc1C(=O)N1CCOCC1	1.0
Nc1cc(C(=O)OCC(=O)NCC2CCCO2)ccc1Cl (stereo unspecified)	0.5
Cc1cccc(N(C)C(=O)COc2cc(=O)n(C)c3ccccc23)c1	1.0
CC(OC(=O)C(NC(=O)c1ccco1)C(C)C)C(=O)Nc1ncc(Cl)cc1Cl (stereo unspecified)	0.5
CN(C)CCCOC(=O)c1ccc(Cl)cc1	3.6
C/C(N)=C(/C#N)C(=O)COC(=O)CSc1ccc2ccccc2c1	1.1
FC(F)(F)c1cnc(Oc2ccc(-c3nnco3)cc2)c(Cl)c1	i
CC(C)c1nc(N2CCN(C(=O)c3ccco3)CC2)c2c3c(sc2n1)CCCC3	i
CCCCNC(NCCCC)=C(S(=O)(=O)CC)S(=O)(=O)CC	1.3
N#CN=C1SCCS1	i
CC12CCC(=O)N1c1ccccc1C(=O)N2c1ccccc1 (stereo unspecified)	1.2
CC1(C)N=C(N)N=C(N)N1c1cccc(C(=O)O)c1	0.5
CCOC(=O)CCc1c(C)c2ccc(OCc3ccc([N+](=O)[O-])cc3)cc2oc1=O	0.7
Cn1c(=O)oc2cc(S(=O)(=O)NCCCN3CCCC3=O)ccc21	3.5
O=C(Nc1nn[nH]n1)C12CC3CC(CC(C3)C1)C2	i
CCc1ccccc1SCc1noc(C(=O)NCC2CCCO2)c1C(=O)O (stereo unspecified)	0.0
COc1ccc(CCNC(=O)C2CCN(S(=O)(=O)c3ccc(-n4cnnn4)cc3)CC2)cc1OC	i
CCOC(=O)Cn1nc(-c2ccc(Cl)cc2)cc1N	0.2
CCOc1ccccc1N(CC(=O)Nc1ccccc1C(=O)NCc1ccco1)S(C)(=O)=O	2.1
CCOc1ccc(CCNC(=O)C(O)c2ccccc2)cc1 (stereo unspecified)	1.0
Cc1cc(NC(=O)CSc2nnc(-c3ccco3)n2Cc2ccco2)no1	i
O=C(CCc1ccccc1)NC1CCSC1=O (stereo unspecified)	i
CC(C)CSc1nc2ccccc2c(=O)[nH]1	0.4
Following part
SMILES	H5N1 CPE
CS/C(=N\S(=O)(=O)c1ccc(Cl)cc1)c1ccccc1	0.7
CCN(CC)S(=O)(=O)c1ccc(Cl)c(OC)c1	i
CCCCCC1NC(=O)NC1CCCCCC(=O)O (stereo unspecified)	1.1
CCCOC(=O)c1ccc(NS(=O)(=O)c2cccs2)cc1	1.1
O=C(CSc1nnc(-c2ccccn2)n1-c1ccccc1)Nc1ccc2c(c1)OCO2	0.3
CCC(=O)N1c2ccc(S(=O)(=O)CCC(=O)N3CCC4(CC3)OCCO4)cc2CC1C (stereo unspecified)	1.0
O=C(CC1SC(N2CCCCC2)=NC1=O)Nc1cccc(C(=O)O)c1 (stereo unspecified)	1.5

This is a subset; count on the stated rates, not on these rows.
